Compound activity deposited in PubChem BioAssay by several laboratories.
BJeLR viability – MLPCN primary cell-based screen for lethality selective to Ras in HRASV12 cells; 0.17% of 300,000 active; BJeLR (HRASV12) viability, CellTiter-Glo ATP luminescence, 48 h; reference of the scale not given here; inhibition, % (test concentration not listed); AID 1554, 2009;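 active means replicate mean above 50%; inconclusive means above 50% but judged a plate artefact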;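 further: 50 nL library stock added to about 25 µL; numbers are from one replicate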
PrP UTR inh – inhibition of PrP 5' UTR reporter expression; cell-based PrP 5' UTR mRNA reporter, plate reader; inhibition, % (no concentration beside the values); 0.35% of 340,000 active; AID 488862, 2010;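 active means every replicate at 50% or more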;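 further: 0 = median of the neutral control wells; tested in H4 reporter cells; numbers are from one replicate; inactives centre near -14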
RN4220 kill – growth inhibition of S. aureus RN4220, primary screen, OD600; inhibition, % (no concentration beside the values); 16 h; 0.33% of 330,000 active;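 active means z-score of -3 or lower and OD600 up to 0.18 on both plates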;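 further: plate controls were untreated cells for no effect and reference antibiotic for full effect; stock transfer was 100 nL into about 80 µL; one replicate is shown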
Mtb hypoxia inh – PubChem AID 1159583. M. tuberculosis hypoxia-regulated fluorescent reporter, fluorescence. 0.1% of 300,000 active. fluorescence inhibition, % (no concentration beside the values);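 active means 35 to 45% if threefold the growth effect, above 45% if 1.5-fold the growth effect; inactive means the rest, general growth blockers included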;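 further: wells of about 50 µL received 100 nL stock; 0% = vehicle wells and 100% = reference inhibitor wells; whole bacteria with a GFP reporter of the hypoxia response; strong numbers were not always called active; many hits fall short of the cut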
ugtP null kill – growth inhibition of ugtP-null S. aureus, primary screen, RN4220 ugtP deletion, OD600; 16 h; some inactives read as strong as hits; growth inhibition, % (no concentration beside the values); 0.54% of 330,000 active;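 active means z-score under -3 and OD600 up to 0.15 on both plates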;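 further: plate controls were untreated wells for no effect and antibiotic for full effect; wells of about 80 µL received 100 nL stock; the first replicate is given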
Bead autofluor – counter-screen for toxin protease inhibitors: compound fluorescence; 3.1% of 360,000 active; fluorescence intensity (test concentration not listed); compound autofluorescence counterscreen, microsphere flow cytometry; hits give high values;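 active means at least 3 SD above the mean of all compounds, about 16000 in these data; inconclusive means too few beads counted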;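 further: 100 nL of 1 mM stock went into each well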
Mtb hypoxia inh growth – second read-out of Mtb hypoxia inh, no call of its own (marks repeat the call); growth inhibition, %; measured here: M. tuberculosis growth (absorbance);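 0% = vehicle and 100% = reference antibiotic; read after six days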
Starred values were filed as active, the others as inactive; ? = inconclusive; . = not tested or not shown.

The line under a structure holds: BJeLR viability | PrP UTR inh | RN4220 kill | Mtb hypoxia inh | Mtb hypoxia inh growth | ugtP null kill | Bead autofluor
> COc1ccccc1/C=N/NC(=O)CC(=O)NCc1ccccc1
 : 5 | -21 | . | . | . | . | 3784
> Cc1cc(C)n(C(C)CC(=O)Nc2ccc3c(c2)OCCO3)n1 (stereo unspecified)
 : 12 | -9 | 3.5 | 11 | 1 | -3 | 5929
> O=S(=O)(Nc1cccc(S(=O)(=O)N2CCCC2)c1)c1cccs1
 : . | -22 | 4.0 | 0 | 7 | 4 | 3678
> O=C(Cn1c2[n+](c3ccc(C(F)(F)F)cc31)CCCCC2)Nc1ccc(Br)cc1
 : -18 | 3 | 1.3 | 5 | 9 | 6 | 4421
> CCOc1ccc(N2C(=O)CC(N(CCc3ccc(OC)c(OC)c3)C(=O)/C=C/C(=O)O)C2=O)cc1 (stereo unspecified)
 : -9 | -9 | 2.1 | 0 | 0 | 9 | 5105
> Cc1nc2sc3c(c2c(=O)n1/N=C/c1ccco1)CCCC3
 : 4 | -35 | . | . | . | . | 6192
> CC(=O)NC(=S)Nc1ccccc1C(=O)NC1CCCCC1
 : -24 | -25 | 5.7 | 5 | 5 | 4 | 2449
> COCc1nnc(NC(=O)C2CC(=O)N(CCc3ccc(F)cc3)C2)s1 (stereo unspecified)
 : 14 | -12 | 2.5 | 3 | -4 | 8 | 3295
> CCC(=O)Nc1ccc(NC(=O)c2oc3ccccc3c2C)cc1
 : -3 | 9 | -2.7 | 13 | 4 | -1 | .
> COc1ccc(NC(=O)CSc2nnc3n2CCCCC3)cc1S(=O)(=O)N1CCOCC1
 : . | -9 | 5.7 | 7 | -1 | 2 | 7971
> CN1CCN(C(=O)CN2C(=O)CC(C)(C)S(=O)(=O)c3ccccc32)CC1
 : 9 | -23 | 4.4 | 4 | 8 | 1 | 10417
> CC(=O)Nc1ccc(C(=O)n2cnc3cc(C)c(C)cc32)cc1
 : -4 | -1 | 0.0 | . | . | -2 | 4448
> Nc1ccc2c(c1)C(=O)c1cc(N)c(Cl)cc1-2
 : . | 0 | -2.9 | -2 | 8 | 5 | 3842
> COc1ccc(C(C(=O)NC2CCCC2)N(C(=O)c2snc(C(N)=O)c2N)C2CCCC2)cc1OC (stereo unspecified)
 : 6 | -32 | . | . | . | . | 3165
> CCC(CC)C(=O)Nc1cccc(S(=O)(=O)c2cccc(NC(=O)C(CC)CC)c2)c1
 : 0 | 1 | 6.4 | 12 | 2 | 8 | 16846*
> CC1(C)Cc2c(cnn2-c2cccc(F)c2)C(NC(=O)c2ccc(=O)[nH]n2)C1 (stereo unspecified)
 : 10 | -10 | 1.6 | 6 | 2 | 3 | 5274
> COc1ccc(NC(=O)c2ccc(=O)oc2)cc1
 : 4 | -5 | 3.5 | 7 | 15 | 4 | 7976
> CC=C1CC(C)[C@](O)(CO)C(=O)OCC2=CCN3CCC(OC1=O)C23 (stereo partly specified)
 : . | . | 4.6 | 4 | 0 | 0 | .
> CCOC(=O)NC(c1cccc(Cl)c1)C1CCCCCC1=O (stereo unspecified)
 : -4 | -17 | -0.5 | . | . | 2 | 4248
> O=C(Nc1nnc(-c2ccccc2Cl)s1)C1CCN(S(=O)(=O)c2ccc(Cl)cc2)CC1
 : -2 | -13 | 2.0 | 11 | 7 | 6 | 2298
> CC1(c2ccccc2)CC(C)(C)N(C(=O)c2cc([N+](=O)[O-])cc([N+](=O)[O-])c2)c2ccccc21 (stereo unspecified)
 : -3 | -25 | -7.6 | -10 | 1 | 11 | 2161
> COc1ccccc1-c1nc(SCC(=O)Nc2ccccc2)n[nH]1
 : -10 | 1 | 4.8 | 1 | -1 | -1 | 4112
> C=CCN1C(=O)c2ccc(C(=O)N(C)CC(=O)Nc3c(C)cccc3C)cc2C1=O
 : -6 | -22 | 1.9 | 6 | -16 | 6 | .
> CC(=O)N1CCN(S(=O)(=O)c2ccc(Cl)cc2F)CC1
 : -1 | -17 | 11 | 9 | 0 | 2 | 3933
> Cc1ccc(NC(=S)N2CCC(NC(=O)c3ccc(F)cc3)CC2)cc1
 : -15 | -2 | -0.6 | 3 | 0 | 4 | 4936
> O=C1NC(=O)C(=Cc2cc3c(cc2[N+](=O)[O-])OCO3)C(=O)N1
 : -19 | -6 | -1.0 | 5 | 7 | 6 | 4359
> Cn1c(=O)c(=O)n(C)c2cc(S(=O)(=O)N3CCN(Cc4ccccc4)CC3)ccc21
 : -2 | -17 | 5.1 | -4 | 6 | -9 | 9563
> CN(CC(=O)Nc1ccc(F)c(F)c1F)C(=O)c1ccc2c(c1)OCCO2
 : 2 | -17 | 1.0 | 1 | -1 | 9 | ?
> CC(O)(CS(=O)(=O)c1ccc(Br)cc1)c1ccccc1 (stereo unspecified)
 : 1 | -8 | 1.7 | 5 | 8 | 7 | 3943
> C=CCN1CCCC1CNC(=O)c1cc2[nH]nnc2cc1OC (stereo unspecified)
 : . | 1 | 8.1 | -1 | 1 | 3 | 6325
> O=C(Cc1ccccc1)NC1CCN(Cc2ccccc2)CC1
 : 6 | -11 | -1.7 | 15 | -7 | -2 | 4716
> CCN(CC)S(=O)(=O)c1ccc(C(=O)Nc2nnc(CSC)o2)cc1
 : -5 | -25 | 1.5 | 11 | 11 | 14 | 2048
> O=C(Nc1ccccc1)C(c1ccccc1)C1CCCC1 (stereo unspecified)
 : 6 | -14 | -1.9 | -14 | 1 | -4 | 2087
> Cc1ccc(SCC(=O)OC(C)C(=O)NCc2ccccc2)cc1 (stereo unspecified)
 : 9 | -28 | 3.3 | -9 | 3 | 1 | 6052
> CC1(C)NC(=O)NC2(C)NC(=O)NC(C)(C)C12 (stereo unspecified)
 : 0 | -3 | 1.2 | 14 | 4 | 4 | 3531
> O=C(NN=Cc1ccccc1C(=O)O)c1cc(-c2ccc3c4c(cccc24)CC3)n[nH]1
 : . | . | 14 | 12 | 0 | -11 | .
> O=C1CN(C(=O)CNC(=O)c2cccc(Cl)c2)c2ccccc2N1
 : -4 | -9 | -0.2 | -3 | 1 | 5 | 4002
> N#Cc1ccccc1OCC(=O)N(Cc1nnc(-c2ccccc2Cl)o1)C1CC1
 : -3 | -18 | 2.0 | -1 | 6 | 3 | ?
> Cc1noc(C)c1CSCC(=O)Nc1nc2ccccc2s1
 : -1 | -12 | 4.7 | 11 | 1 | -9 | 5736
> CCc1ccccc1NC(=S)N(CCN1CCOCC1)Cc1ccccc1F
 : -1 | -23 | 1.4 | -8 | 9 | -11 | 3278
> COc1cccc(NC(=O)CCNS(=O)(=O)c2ccc3c(c2)oc(=O)n3C)c1
 : 4 | 0 | 2.8 | -13 | -16 | 2 | 4239
> O=C1C2CCCN2C(c2cccc(Br)c2)N1c1ccc(F)cc1 (stereo unspecified)
 : -7 | -11 | -0.6 | . | . | 7 | 6254
> COC(=O)/C(C#N)=C/c1c(N2CCN(Cc3ccc4c(c3)OCO4)CC2)nc2c(C)cccn2c1=O
 : -6 | -5 | 4.8 | 16 | 4 | 8 | 6276
> CCOC(=O)N1CCN(c2c(-c3ccc(C(C)C)cc3)c(=O)c2=O)CC1
 : 1 | -1 | 8.4 | 3 | 4 | 10 | 7066
> CCOc1ccc(C=NOCC(=O)NCc2ccco2)cc1
 : . | . | 2.7 | -7 | -10 | 0 | .

Reprinted from the part before: two compounds, followed by the next part.
The line under a structure holds: BJeLR viability | PrP UTR inh | RN4220 kill | Mtb hypoxia inh | Mtb hypoxia inh growth | ugtP null kill | Bead autofluor
> CCOC(=O)N1CCN(c2c(-c3ccc(C(C)C)cc3)c(=O)c2=O)CC1
 : 1 | -1 | 8.4 | 3 | 4 | 10 | 7066
> CCOc1ccc(C=NOCC(=O)NCc2ccco2)cc1
 : . | . | 2.7 | -7 | -10 | 0 | .
> Cn1cnc([N+](=O)[O-])c1C(=O)Nc1cccc([N+](=O)[O-])c1
 : 1 | -4 | 4.0 | 6 | 21 | -6 | 4019
> CCOC(=O)c1sc2nc(NC(=O)COc3ccccc3)sc2c1C
 : 3 | -9 | -16 | 3 | 0 | -6 | 5892
> O=C(COc1ccccc1Cl)NNC(=O)c1ccc(-n2cncn2)c([N+](=O)[O-])c1
 : . | 2 | 3.9 | -2 | 2 | 5 | 5656
> CC(C)Cc1nc(N2CCC(C(N)=O)CC2)c2nnn(Cc3ccccc3)c2n1
 : -2 | -20 | -5.5 | -9 | -2 | -3 | 11720
> CCn1c(C)c(C(=O)Nc2ccc(OC)cc2)c2cc(OC)ccc21
 : 3 | 6 | 1.7 | 16 | 7 | 4 | 3802
> C=CCn1c(SCC(=O)NNC(=O)Nc2ccc(C)cc2)nnc1-c1ccccc1
 : 0 | -27 | 2.3 | 13 | 1 | 8 | 5400
> O=C(O)c1ccc(NC(=S)NC(=O)c2ccc3ccccc3c2)cc1
 : 3 | -19 | 6.8 | 3 | -2 | 0 | 4215
> CCC(=O)Nc1ccc(Cl)c(NC(=O)c2ccc([N+](=O)[O-])cc2)c1
 : 10 | -15 | 2.4 | 0 | -3 | 9 | 2754
> COc1ccc(C(=O)Oc2cccc3cccnc23)cc1S(=O)(=O)N1CCOCC1
 : 11 | -25 | 2.8 | 8 | 8 | 9 | 3979
> CS(=O)(=O)c1ccc2nc(NC(=O)CCNC(=O)c3ccccc3Cl)sc2c1
 : . | -1 | 0.5 | -7 | 4 | 0 | 3859
> Cc1cccc(NC(NC(=O)Cc2ccccc2)C(Cl)(Cl)Cl)c1 (stereo unspecified)
 : 0 | 1 | 2.0 | 9 | 2 | 5 | 2505
> COc1ccc(NC(=O)C2CCCN(S(=O)(=O)c3ccc4c(c3)CCCN4C(C)=O)C2)cc1 (stereo unspecified)
 : -2 | -12 | 1.0 | 1 | 0 | 4 | 4251
> Cc1c(Br)c(C(F)(F)F)nn1CC(=O)N(C)C1CCCCC1
 : 0 | -22 | 4.6 | 11 | 8 | 0 | 3747
> CC(C)CCNC(=O)c1nn(Cc2ccccc2)c(=O)c2ccccc12
 : -12 | -23 | -1.4 | 4 | 4 | 8 | 3580
> Cc1ccc(/C=N/Nc2nc3ccccc3[nH]2)s1
 : -5 | -83 | . | . | . | . | 7037

Molecules listed so far containing a COOH group, in the order listed:
The line under a structure holds: BJeLR viability | PrP UTR inh | RN4220 kill | Mtb hypoxia inh | Mtb hypoxia inh growth | ugtP null kill | Bead autofluor
> CCOc1ccc(N2C(=O)CC(N(CCc3ccc(OC)c(OC)c3)C(=O)/C=C/C(=O)O)C2=O)cc1 (stereo unspecified)
 : -9 | -9 | 2.1 | 0 | 0 | 9 | 5105
> O=C(NN=Cc1ccccc1C(=O)O)c1cc(-c2ccc3c4c(cccc24)CC3)n[nH]1
 : . | . | 14 | 12 | 0 | -11 | .
> O=C(O)c1ccc(NC(=S)NC(=O)c2ccc3ccccc3c2)cc1
 : 3 | -19 | 6.8 | 3 | -2 | 0 | 4215

Fetched by structure from the list above (two):
The line under a structure holds: BJeLR viability | PrP UTR inh | RN4220 kill | Mtb hypoxia inh | Mtb hypoxia inh growth | ugtP null kill | Bead autofluor
> CCc1ccccc1NC(=S)N(CCN1CCOCC1)Cc1ccccc1F
 : -1 | -23 | 1.4 | -8 | 9 | -11 | 3278
> O=C(COc1ccccc1Cl)NNC(=O)c1ccc(-n2cncn2)c([N+](=O)[O-])c1
 : . | 2 | 3.9 | -2 | 2 | 5 | 5656

The listing continues.
The line under a structure holds: BJeLR viability | PrP UTR inh | RN4220 kill | Mtb hypoxia inh | Mtb hypoxia inh growth | ugtP null kill | Bead autofluor
> CC(=O)Nn1cnc2c(c1=O)C1(CCCC1)Cc1ccccc1-2
 : . | -4 | 6.6 | . | . | 12 | ?
> O=c1nc2sc3ccccc3n2c(=O)n1-c1cccc(Cl)c1
 : 3 | -62 | -7.1 | . | . | -8 | 2344
> CCOC(=O)C1(CCCc2ccccc2)CCN(C(=O)C2=C(C)OCCO2)CC1
 : -3 | -8 | 9.9 | 10 | 16 | 0 | 2464
> CCOC(=O)c1c(N)sc2c1CCSC2
 : -6 | -10 | -0.7 | . | . | -9 | 2427
> Cc1ccccc1NC(=O)c1cc2c(=O)n3cccc(C)c3nc2s1
 : 2 | -19 | 6.0 | 2 | 5 | 11 | 3376
> OC(CNCCN1CCNCC1)Cc1ccccc1 (stereo unspecified)
 : . | -23 | 2.1 | 4 | 0 | 1 | 3154
> O=C1N(Cc2cccnc2)C[C@@H]2C[C@@H](c3ccc4nonc4c3)N3CCC[C@@]123
 : -5 | -18 | 1.4 | -1 | 2 | 1 | 2403
> COc1ccc(/C=N/NC(=O)Nc2nonc2N)cc1
 : 1 | -42 | . | . | . | . | 2308
